Bioassay records (PubChem)
Ba CapD inh: blocks the Bacillus anthracis CapD enzyme; purified CapD enzyme, fluorescence intensity read-out; hits give low values; some hits fall short of the stated cut; 140,000 tested, 0.23% active; z-score (no concentration beside the values);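 active = z-score under -4 in either of two replicates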;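 note: stock transfer was 100 nL into about 40 µL; score is relative to mean and spread of the plate; one replicate is shown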
AID504770: E. coli YBA685 growth inhibition, screen for V. cholerae RctB inhibitors; 130,000 tested, 0.27% active; z-score (test concentration not listed); AID 504770; E. coli YBA685 rctB-dependent plasmid, OD600 growth, 3 h; hits give low values;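 active = z-score under -2 on both plates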;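 note: wells of about 30 µL received 100 nL stock; score is relative to mean and SD of the test wells; the first replicate is given; strong numbers were not always called active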
* hit, by the source's call.

Results for Cn1cccc1C(=O)NNC(=O)OCc1ccc(C(C)(C)C)cc1 ?
Ba CapD inh: -0.15

How did COc1cccc(NC(=O)c2sc3nc(C)nc(N4CCCCC4C)c3c2C)c1 (stereo unspecified) do in these assays?
Ba CapD inh: 0

How did Cc1nc(/N=C(/N)Nc2cccc(Cl)c2C)[nH]c(=O)c1Cc1ccccc1 do in these assays?
Ba CapD inh: -0.77; AID504770: 1.75

Results for CC(C)c1nc2ccccc2n1C(C)c1ccccc1 (stereo unspecified) ?
AID504770: 0.75

Results for CCOc1ccc(NC(=O)c2cc(-c3ccc(C)s3)nc3ccccc23)c([N+](=O)[O-])c1 ?
Ba CapD inh: 2.52

How did O=C(Nc1ccc(OCc2ccccc2)cc1)Nc1cccnc1 do in these assays?
Ba CapD inh: 0.5; AID504770: 0.05

How did CC(=O)Nc1ccc(S(=O)(=O)N(C(C)=O)c2nc(C)cc(C)n2)cc1 do in these assays?
Ba CapD inh: -0.98

How did O=C(CCc1c[nH]c2ccccc12)N1CCC(O)(Cc2ccccc2)CC1 do in these assays?
Ba CapD inh: -0.71

How did CCOC(=O)c1cc(C)n(-c2ccc(C(=O)N3CCc4ccccc43)cc2)c1C do in these assays?
Ba CapD inh: -0.225; AID504770: -0.4

How did CC1=CC(C)C2COC(c3ccccc3O)C1C2C (stereo unspecified) do in these assays?
Ba CapD inh: -0.38

How did COc1ccc(-c2cn[nH]c2C)cc1OC do in these assays?
Ba CapD inh: -0.34; AID504770: 0.7

What do the screens show for `Cc1c(C(=O)OCC(=O)NC2(C#N)CCCCC2)sc2nc3n(c(=O)c12)CCC3`?
AID504770: -0.2

Results for O=C1/C(=C/c2ccc(-c3cc(Cl)ccc3Cl)o2)C=C(c2ccccc2)N1c1ccc(Sc2ccc([N+](=O)[O-])cc2)cc1 ?
Ba CapD inh: -1.35

What do the screens show for `CCOC(=O)c1sc(NC(=O)C(C)Sc2ncnc3ccccc23)c(C(=O)OCC)c1C` (stereo unspecified)?
Ba CapD inh: 0.005; AID504770: 2.4

What do the screens show for `CC(C)(C)c1cc2nc(C(F)(F)F)cc(N3CCN(C(=O)c4ccccc4)CC3)n2n1`?
Ba CapD inh: 10.2; AID504770: -0.1

What do the screens show for `Cc1oc2nc[nH]c(=O)c2c1C(=O)Nc1cccc(C(F)(F)F)c1`?
AID504770: -0.2

What do the screens show for `COC(=O)N/N=C/c1c[nH]c2ccccc12`?
Ba CapD inh: 0.09; AID504770: -0.45

Results for CCc1ccc(NC(=O)CN2C(=O)CCc3ccccc32)cc1 ?
Ba CapD inh: 0.21; AID504770: -0.7

How did CC(C)(C)NC(=O)CC(c1ccccc1)c1ccccc1 do in these assays?
Ba CapD inh: -0.125; AID504770: 0.65

Results for Cc1ccc(N2C(=O)CSC2=S)c(C)c1 ?
AID504770: -0.3

What do the screens show for `Cc1ccc(-c2noc(CCCCCN=Cc3c(O)[nH]c(=O)[nH]c3=O)n2)cc1`?
AID504770: -1.15

What do the screens show for `c1ccc(-c2nnn3c2nc(N2CCCCC2)c2ccccc23)cc1`?
Ba CapD inh: 0.12; AID504770: 1.1

Results for Cc1ccc(NC(=O)C(Cc2c[nH]c3ccccc23)NC(=O)OCc2ccccc2)c(C)c1 (stereo unspecified) ?
Ba CapD inh: -0.42

How did C/C(=C/c1ccccc1)C(=O)Nc1ccc2nc3n(c(=O)c2c1)CCCCC3 do in these assays?
Ba CapD inh: -0.525; AID504770: 0.95

What do the screens show for `O=C1N(c2ccccc2)C2CS(=O)(=O)CC2N1c1ccccc1` (stereo unspecified)?
Ba CapD inh: -0.29; AID504770: 1.95

What do the screens show for `CC1(C)CC(=O)N(CC(=O)N2CCN(c3cccc(C(F)(F)F)c3)CC2)c2ccccc2S1`?
Ba CapD inh: -1.45; AID504770: -1.3

How did O=C(CSc1nccn1-c1ccc(Cl)cc1)NC1CCCC1 do in these assays?
Ba CapD inh: -0.61; AID504770: 0.05

Results for CSc1scc(-c2cc(Cl)cc(Cl)c2)c1C#N ?
Ba CapD inh: -0.095; AID504770: 1

Results for COc1ccc(S(=O)(=O)NCC(C)(C)SCc2ccc(F)cc2)cc1 ?
Ba CapD inh: -0.265

What do the screens show for `COc1ccc(-c2cc(-c3ccc(OC)c(OC)c3)nc(N)c2C#N)cc1`?
Ba CapD inh: 69.6

Results for CCC(C)NC(=O)c1cc2c(s1)-c1ccccc1SC2 (stereo unspecified) ?
Ba CapD inh: 2.14; AID504770: -0.8

Results for COc1ccc(C(C(=O)NC2CCCC2)N(Cc2ccc(C)cc2)C(=O)c2ccn[nH]2)cc1OC (stereo unspecified) ?
AID504770: 0.4

What do the screens show for `CCn1c(C)nc2cc(NC(=O)C(F)(F)F)ccc21`?
Ba CapD inh: -1.35; AID504770: 0.75

Results for CCCNCc1nc(-c2cccc(C)c2)no1 ?
Ba CapD inh: 0.665; AID504770: 0.15

How did CC(C(=O)Nc1nccs1)C1SC(=O)NC1=O (stereo unspecified) do in these assays?
Ba CapD inh: -1.69; AID504770: 0.7

Results for C=CCn1c(N)c(S(=O)(=O)c2cccc(C)c2)c2nc3ccccc3nc21 ?
AID504770: -0.45

Results for O=C(O)CCCc1nc(-c2ccc(Cl)cc2)no1 ?
Ba CapD inh: -0.18

Results for CC(=O)n1nc(C)c(CS(=O)(=O)c2ccccc2)c1C ?
Ba CapD inh: 0.02; AID504770: 0.65

Results for O=C(NCCN1CCOCC1)c1ccc2c(c1)N(Cc1ccccc1)C(=O)c1ccccc1S2 ?
Ba CapD inh: -0.695; AID504770: 0.85

What do the screens show for `Cc1oc(C(N)=O)nc1-c1ccccc1`?
Ba CapD inh: 5.73; AID504770: 0.3

What do the screens show for `FC(F)(F)Oc1ccc2c(c1)c1nc3ccccc3nc1n2Cc1ccccn1`?
Ba CapD inh: 0.63

How did COc1ccc(Br)cc1/C=C1\N=C(c2cc(OC)c(OC)c(OC)c2)OC1=O do in these assays?
Ba CapD inh: 0.585

Results for CCOC(=O)C1=C(C)NC2=C(C(=O)CC(C)(C)C2)C1c1ccc2c(c1)OCCO2 (stereo unspecified) ?
Ba CapD inh: 22.4; AID504770: -0.15

How did COc1ccc(-n2c(C)nnc2SCC(=O)NCc2cc3cc(Cl)ccc3n2C)cc1 do in these assays?
AID504770: 0.5

Results for CC(Oc1ccc2c(=O)c(-c3ccc(Cl)cc3)coc2c1)C(=O)O (stereo unspecified) ?
Ba CapD inh: -0.34; AID504770: -0.4

Pulled by structure from the entries so far (2):
What do the screens show for `CCn1c(C)nc2cc(NC(=O)C(F)(F)F)ccc21`?
Ba CapD inh: -1.35; AID504770: 0.75

Results for C=CCn1c(N)c(S(=O)(=O)c2cccc(C)c2)c2nc3ccccc3nc21 ?
AID504770: -0.45

Structural class, the compounds so far with a tert-butyl group (3)
Results for Cn1cccc1C(=O)NNC(=O)OCc1ccc(C(C)(C)C)cc1 ?
Ba CapD inh: -0.15

What do the screens show for `CC(C)(C)c1cc2nc(C(F)(F)F)cc(N3CCN(C(=O)c4ccccc4)CC3)n2n1`?
Ba CapD inh: 10.2; AID504770: -0.1

How did CC(C)(C)NC(=O)CC(c1ccccc1)c1ccccc1 do in these assays?
Ba CapD inh: -0.125; AID504770: 0.65

More compounds follow:
How did O=S1(=O)CCN(CC2COc3ccccc3O2)CC1 (stereo unspecified) do in these assays?
Ba CapD inh: 0.11; AID504770: -1.1

How did COc1cccc(COC(=O)c2ccc3c(c2)C(=O)N(Cc2ccncc2)C3=O)c1OC do in these assays?
AID504770: 0.05

What do the screens show for `CCOC(=O)C=C1CCN(c2ncc(C(F)(F)F)cc2Cl)CC1`?
Ba CapD inh: -0.085; AID504770: 0.2

What do the screens show for `O=C(O)c1ccc(Sc2ccccc2C(=O)O)c(C(=O)O)c1`?
Ba CapD inh: 0.585; AID504770: 1.15

Results for COc1cc2nc(N(C)C)nc(N)c2cc1OC ?
Ba CapD inh: 72.2; AID504770: -1.05

What do the screens show for `Cc1nc2nc(NC(=O)C(C)(C)C)[nH]n2c(=O)c1Cc1ccccc1`?
AID504770: -0.9

How did COc1ccc(C2(CNC(=S)Nc3ccccc3)CCOCC2)cc1 do in these assays?
Ba CapD inh: 0.42; AID504770: -0.95

Results for CC(C(=O)Nc1ccc(F)c(F)c1F)N1C(=O)c2ccccc2S1(=O)=O (stereo unspecified) ?
AID504770: 0.15

Results for CCCSc1ncnc2c1oc1ccccc12 ?
Ba CapD inh: -0.65; AID504770: -0.7

How did O=C(NCCCN1CCCCCC1)c1ccc(N2CCCC2=O)cc1 do in these assays?
Ba CapD inh: -0.59; AID504770: -0.7

Results for O=C(Nc1ccc2ccccc2c1)C1CCC1 ?
AID504770: -0.2

What do the screens show for `S=C(NCc1ccco1)SCc1cn2cccnc2n1`?
AID504770: 1.4

Results for COCc1ccccc1Cn1cnc2ccccc21 ?
Ba CapD inh: 0.44; AID504770: 0.45

Results for COc1ccc(N2CCN(C(=NCCc3ccccc3)Nc3ccc(C(=O)O)cc3)CC2)cc1 ?
Ba CapD inh: 0.555; AID504770: 0.35

Results for CC(=O)Oc1ccc2c(=O)c(Oc3cc(C)cc(C)c3)coc2c1 ?
Ba CapD inh: -2.12; AID504770: -0.9

By substructure: the compounds so far containing a nitro group on carbon.
Results for CCOc1ccc(NC(=O)c2cc(-c3ccc(C)s3)nc3ccccc23)c([N+](=O)[O-])c1 ?
Ba CapD inh: 2.52

Results for O=C1/C(=C/c2ccc(-c3cc(Cl)ccc3Cl)o2)C=C(c2ccccc2)N1c1ccc(Sc2ccc([N+](=O)[O-])cc2)cc1 ?
Ba CapD inh: -1.35

Part of the list above in order of heavy-atom count, descending.
What do the screens show for `Cc1nc2nc(NC(=O)C(C)(C)C)[nH]n2c(=O)c1Cc1ccccc1`?
AID504770: -0.9

Results for CC(=O)Oc1ccc2c(=O)c(Oc3cc(C)cc(C)c3)coc2c1 ?
Ba CapD inh: -2.12; AID504770: -0.9

What do the screens show for `O=C(O)c1ccc(Sc2ccccc2C(=O)O)c(C(=O)O)c1`?
Ba CapD inh: 0.585; AID504770: 1.15

Results for COc1cc2nc(N(C)C)nc(N)c2cc1OC ?
Ba CapD inh: 72.2; AID504770: -1.05

Results for CCCSc1ncnc2c1oc1ccccc12 ?
Ba CapD inh: -0.65; AID504770: -0.7

Carrying on.
What do the screens show for `O=S(=O)(NNc1c(Cl)cncc1Cl)c1ccc2c(c1)OCC2`?
Ba CapD inh: 0; AID504770: -0.45

What do the screens show for `c1ccc2[nH]c(C3CCCNC3)nc2c1` (stereo unspecified)?
AID504770: -0.1

What do the screens show for `CCOC(=O)c1c(S(=O)(=O)Nc2ccc3c(c2)OCCO3)c(C)n(C)c1C`?
Ba CapD inh: -2.75; AID504770: 3.3

What do the screens show for `CSc1ccc(Cl)c(C(=O)OCC(=O)NCC2CCCCC2)c1`?
Ba CapD inh: 0.11; AID504770: -0.6

What do the screens show for `CCc1cccc2c1NC(=O)C21OCCO1`?
Ba CapD inh: -0.335; AID504770: -0.75

Results for Cn1cc(NC(=O)NCCSc2c[nH]c3ccccc23)c2ccccc21 ?
AID504770: 0.2

Results for CN1CCC(O)(c2ccccc2)CC1 ?
Ba CapD inh: 0.24; AID504770: -0.55

What do the screens show for `CCc1nc2ccccc2[nH]c1=O`?
Ba CapD inh: 31.6

Results for CCOC(=O)CCn1cnc2cc(Br)ccc2c1=O ?
AID504770: 0.75

How did COc1ccc(N2CCN(C(=O)c3ccc(NS(=O)(=O)c4ccc(F)c(F)c4)cc3)CC2)cc1 do in these assays?
AID504770: -0.65

How did CCOC(=O)CSc1nc2cc(C(=O)N3CCN(C(=O)OCC)CC3)ccc2c(=O)n1C1CCCCC1 do in these assays?
Ba CapD inh: 0.155

What do the screens show for `O=C(Nc1nnc(-c2ccc3c(c2)CCCC3)o1)c1ccc(NS(=O)(=O)c2ccc(F)cc2)cc1`?
AID504770: -0.7

How did Nc1ccc(C(=O)O)c2c(C(=O)O)cccc12 do in these assays?
Ba CapD inh: -1.23; AID504770: -0.7

How did COC(=O)C1=C(C)N=c2s/c(=C/c3ccco3)c(=O)n2C1c1ccc(OC)cc1 (stereo unspecified) do in these assays?
Ba CapD inh: 0.015; AID504770: -0.45

How did CC1CCN(c2cc(N3CCN(C(=O)c4ccc(F)cc4)CC3)c([N+](=O)[O-])cc2F)CC1 do in these assays?
Ba CapD inh: 0.545

How did Cc1nc(SC(C#N)Cc2ccccc2)c2ccccc2n1 (stereo unspecified) do in these assays?
AID504770: -0.15

How did CCCOc1c(Br)cc(C=C2C(=O)NC(=S)NC2=O)cc1OCC do in these assays?
Ba CapD inh: -0.46

How did CCOc1ccc(-n2c(=O)c3c4c(sc3n(Cc3cccnc3)c2=O)CCC4)cc1 do in these assays?
Ba CapD inh: -0.885; AID504770: -0.75

Results for O=S(=O)(NCc1ccco1)c1ccc(Cl)cc1 ?
AID504770: -1

Results for COc1ccccc1C(=O)Nc1ccccc1SCc1cc(=O)n2nc(C3CC3)sc2n1 ?
Ba CapD inh: -0.24; AID504770: 0.5

Results for Cc1cc(NCC2CCCO2)n2c(nc3ccccc32)c1C#N (stereo unspecified) ?
AID504770: 0.85

What do the screens show for `O=C(NC12CC3CC(CC(C3)C1)C2)N1CC2Cc3cccc(=O)n3C(C2)C1` (stereo unspecified)?
AID504770: -0.15
